D2 potentiator: human D2 receptor positive allosteric modulation. P14416. DiscoveRx D2 beta-arrestin cells, luminescence, 90 min; 100% = 57 uM dopamine signal. potentiation, % (test concentration not listed). hit rate 0.23% among 360,000; active = potentiation of 50% or more; inconclusive = 30% to 50%; inactive = 30% or less;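 also: compound concentration not given in the record; tested on top of an EC20 dose of dopamine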
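PathHunter D2 cells, attached overnight at 37 deg C, received compound in DMSO plus dopamine at EC20 (50 nM final) for 90 min at 37 deg C. Beta-arrestin recruitment was read as luminescence after 1 h with detection reagent at ambient temperature.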
PINK1 expr mod: modulators of PINK1 expression; PINK1 immunofluorescence, high-content cytometry, 24 h; Potency, µM (series often up to 76.6 µM), inactives show at the highest dose activation (PINK1 increase), most hits filed as activators; hit rate 0.2% among 410,000; AID 624263; active = well fitted activation curve with a large enough effect; inconclusive = small, poorly fitted or top-dose-only effect; inactive = flat fitted curve, though single readings scatter; cell line not stated here;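 also: potency is read from the fitted curve at half-maximal effect; % of control where 0% means no effect; nearly all actives have a fitted effect of over 65% in size; a mitochondrial uncoupler was the plate control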
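Cells are seeded, rested 12 hours, then given compound at five concentrations or DMSO for 24 hours. After fixation, blocking and antibody staining, PINK1 amount and mitochondrial localization are scored; CCCP serves as control.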
TRPML1 ag: human mucolipin-1 channel agonism; Q9GZU1; TRPML1-expressing cells, Ca2+ dye fluorescence, FDSS; host cell line not named in the record; reference of the full effect not given here; activation, % (test concentration not listed); hit rate 0.12% among 410,000; AID 624414; in the data active = activation above about 50%; inconclusive = about 30% to 50%; inactive = below about 30%; also: 0% is about no effect; the text of the record puts the active cut at 80%
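Tet-induced TRPML1-DL cells, 1,500 per well, cultured overnight, were loaded with a no-wash Ca2+ dye for 45–90 min. Calcium fluorescence was recorded on the FDSS for 110 s after compound addition, before the EC80 agonist (4 uM 54-4) was added.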
CtBP-E1A blk: inhibitors of CtBP/E1A interaction; activity change, % (concentration not given with the values); hit rate 0.49% among 340,000; AID 651724; AlphaScreen GST-E1A/His-CtBP binding, 1536-well; active compounds read low; control for the full effect not named in the record; in the data active means activity change below about -65%; inconclusive means about -30% to -65%; inactive means above about -30%; also: % is scaled to controls: 0 for no effect and ±100 for the full control effect
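GST-E1A and His-tagged CtBP (125 nM each as 5X stock) were preincubated with pin-transferred compound for 2 h at 37 °C in the dark, then glutathione donor and nickel acceptor beads were added for 1 h before AlphaScreen reading.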
Six1-Eya2 blk: blocks human Six1 binding to Eya2 | AlphaScreen GST-Six1/His-Eya2 binding, biochemical; active compounds read low; control for the full effect not named in the record | activity change, % (concentration not given with the values) | hit rate 0.56% among 360,000 | AID 651725; in the data active = activity change below about -65%; inconclusive = about -30% to -65%; inactive = above about -30%; also: % is scaled to controls: 0 for no effect and ±100 for the full control effect
Target sequence (O00167 whole entry, looked up): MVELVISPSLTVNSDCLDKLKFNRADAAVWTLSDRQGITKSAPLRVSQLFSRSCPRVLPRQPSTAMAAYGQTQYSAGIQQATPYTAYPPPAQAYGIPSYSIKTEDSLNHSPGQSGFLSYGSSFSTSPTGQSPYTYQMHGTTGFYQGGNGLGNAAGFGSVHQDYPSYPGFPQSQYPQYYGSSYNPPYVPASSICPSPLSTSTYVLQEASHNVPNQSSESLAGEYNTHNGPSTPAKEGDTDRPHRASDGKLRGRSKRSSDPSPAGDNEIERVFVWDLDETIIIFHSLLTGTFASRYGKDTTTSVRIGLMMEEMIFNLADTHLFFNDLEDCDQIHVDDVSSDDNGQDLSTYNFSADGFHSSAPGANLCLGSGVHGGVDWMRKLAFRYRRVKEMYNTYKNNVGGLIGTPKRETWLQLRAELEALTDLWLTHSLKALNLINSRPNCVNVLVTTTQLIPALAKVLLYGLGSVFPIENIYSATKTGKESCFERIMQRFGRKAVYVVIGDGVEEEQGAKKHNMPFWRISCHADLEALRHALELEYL
Target sequence (Q15475 whole entry, looked up): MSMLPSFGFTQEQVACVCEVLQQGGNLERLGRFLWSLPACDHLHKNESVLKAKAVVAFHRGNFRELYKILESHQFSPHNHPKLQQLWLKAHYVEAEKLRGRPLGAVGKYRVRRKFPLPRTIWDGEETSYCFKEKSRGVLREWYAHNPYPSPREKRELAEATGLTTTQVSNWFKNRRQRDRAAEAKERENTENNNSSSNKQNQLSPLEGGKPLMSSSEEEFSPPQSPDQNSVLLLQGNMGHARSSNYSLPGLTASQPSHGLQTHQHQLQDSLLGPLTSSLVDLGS
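AlphaScreen with GST-Six1 and His-Eya2 (5X mix: 250 nM and 500 nM), glutathione donor and nickel acceptor beads; buffer 50 mM Tris pH 8.0, 300 mM NaCl, 1 mM TCEP; 1 h at 37 C in the dark.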
D2 agonist: agonists of human D2 dopamine receptor (beta-arrestin); P14416; DiscoveRx PathHunter D2 beta-arrestin, luminescence, 90 min; 100% = 57 uM dopamine signal; activation, % (no concentration beside the values); hit rate 0.084% among 360,000; in the data active = activation above about 40%; inconclusive = about 15% to 40%; inactive = below about 15%; also: compound concentration not given in the record; the text of the record calls up to 30% inactive
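DiscoveRx PathHunter D2 beta-arrestin cells (2,100/well) attached overnight, then compound-stimulated 90 min at 37 C in HBSS/10 mM HEPES/0.1% Tween-20 buffer; beta-galactosidase complementation read by luminescence after 1 h at ambient temperature. Dopamine 57 uM final (EC100) as control.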
* hit, by the source's call; ? = inconclusive; nt = no result given; & = joins results of further samples; [ ] = remark or other dose.

SMILES	D2 potentiator	PINK1 expr mod	TRPML1 ag	CtBP-E1A blk	Six1-Eya2 blk	D2 agonist
CC(=O)CSc1nnc2c3ccccc3nc(C(C)(C)C)n12	0	2.1%	1.2	-9	-2	-2.4
O=C(NCc1ccco1)c1ccc(CS(=O)(=O)Cc2ccc(Cl)cc2)o1	-1	-6.2%[38.3 µM]	1.1	2	-1	0.5
O=C(CCN1CCOCC1)NNC(=O)Nc1cccc([N+](=O)[O-])c1	-24	0.6%	0.1	-2	8	-5.4
CCOC(=O)c1ccc(N2CCCCC2)c(NS(=O)(=O)c2cccc(C(F)(F)F)c2)c1	1	4.2%	21	nt	4	7.3
O=C1CC(c2cccs2)Sc2nc3ccccc3n21 (configuration not stated)	-9	0.5%	-1.0	1	-1	-2.5
CN(C)CC(CCC(CN(C)C)C(O)(c1ccccc1)c1ccccc1)C(O)(c1ccccc1)c1ccccc1 (configuration not stated)	-4	-3.3%	2.0	-11	1	0.7
Cn1ccnc1C(=O)c1cc(SCC(=O)NC2CC2)nc2ccccc12	1	3.4%	-0.2	7	-2	3.2
CCNS(=O)(=O)c1ccc(CCC(=O)N2CCN(c3ccccc3F)CC2)cc1	0	-0.3%	-0.6	3	0	6.3
OC1CCC(Nc2ccn3nc(-c4cccc(OCc5ccccc5)c4)cc3n2)CC1 (configuration not stated)	-24	-0.9%	1.9	1	-9	4.0
Cc1cccc(C)c1OCc1cc(C(=O)NC2CCC(O)CC2)no1 (configuration not stated)	-2	0.4%	-0.3	4	0	-0.1
O=C(N/N=C/c1ccc[nH]1)c1ccc(COc2cccc3cccnc23)cc1	-1	?	0.3	-20	-25	3.8
Cc1ccc2[nH]c(C)c(/C=N/Nc3nc4ccccc4s3)c2c1	58*	24%[38.3 µM]	-0.6	-15	-9	5.8
CC(O)CSc1nc2c(c(=O)[nH]c(=O)n2C)n1CC(O)COc1ccccc1 (configuration not stated)	-1	-0.9%	1.4	7	5	2.4
O=[n+]1c2c(n([O-])c3cc(Cl)ccc31)CCCC2	5	-0.1%	-0.3	-3	2	-0.4
O=C(NCc1ccc(F)cc1)c1cc(C2CCCCN2C(=O)OCCF)on1 (configuration not stated)	-10	-0.2%	-0.4	1	-4	-6.4
CCN(c1ccccc1)S(=O)(=O)c1cc(C(=O)NCc2ccco2)ccc1C	0	-0.2%	0.9	-5	-10	0.5
Nc1nc(C23CC4CC(CC(C4)C2)C3)[nH]c(=O)n1	-2	-0.2%	0.6	-18	-3	-2.9
O=C1CSC(=S)N1c1ccc(F)c(Cl)c1	-8	12%	0.8	-6	1	-12
O=C(NS(=O)(=O)N1CCCC1)C1=C(N2CCCC2)COC1=O	-1	-0.2%	-0.3	8	10	0.8
COC(=O)c1c[nH]n2c(=O)cc(C)nc12	-3	1.9%[38.3 µM]	-0.2	0	4	-1.6
Brc1ccc(-n2c(SCc3nc4ccccc4[nH]3)nnc2-c2ccncc2)cc1	-18	1.0%	-0.3	10	1	-3.5
C/C(=N\NC(=O)c1cccs1)c1ccc(C(=O)O)s1	-18	-1.1%	-0.2	-6	0	-3.8
CNC(=S)N/N=C/c1c(C(=O)OC)cnn1-c1ccc(F)cc1F	-5	13%	1.6	-1	-2	0.3
O=C(CCn1c(=O)[nH]c2ccccc2c1=O)NCCCN1CCN(c2cccc(Cl)c2)CC1	-15	-2.9%	0.2	0	-16	-0.2
COC(=O)c1nn(-c2ccccc2)c(=O)cc1Sc1ccc(Cl)cc1	-2	-0.1%	-0.9	4	-2	0.8
O=C(CSc1nc2[nH]ncc2c(=O)[nH]1)NCc1ccccc1	-23	0.4%	-0.1	-9	-4	-3.8
COc1ccc(CN2Cc3cccc4c3[C@@H](CC2=O)[C@H](O)[C@H](O)C4)cc1	0	1.0%	0.7&0.1	9	9	-1.3
Cc1cccnc1NC(=O)CCNC(=O)c1ccc(Cl)cc1	-17	1.2%	0.6	0	2	-1.3
CC(=O)c1cccc(NC(=O)c2ccc(NC(=O)CCS(=O)(=O)c3cccs3)cc2)c1	-4	3.2%	0.5	2	7	-0.2
COc1ccc(CNS(=O)(=O)c2ccc(C)cc2)cc1	-12	-0.1%	1.2&1.9	10	2	-0.1
O=S(=O)(NC1CCCCC1)c1cccc(-c2nnc(-c3ccccc3)o2)c1	2	1.4%	2.2	-23	-12	5.9
CCC(=O)N1CCN(c2ccc(NC(=O)c3ccc([N+](=O)[O-])o3)cc2Cl)CC1	16	-1.2%	1.2	22	29	4.6
O=C(COc1ccc(Cl)cc1Cl)Nc1nnc(C2=COCCO2)o1	2	-0.4%	-0.9	?	?	0.2
Cc1ccc(NS(=O)(=O)c2ccc3c(c2)NC(=O)CO3)cc1	-4	1.1%	-0.1	nt	-4	-3.9
O=C(O)c1cccnc1SC1CC(=O)N(c2ccccc2)C1=O (configuration not stated)	-6	-2.0%	-0.1	1	10	1.7
CC1(C(=O)NCc2cccc(C(F)(F)F)c2)CCN1CCc1ccccc1 (configuration not stated)	-3	8.5%	0.6	9	5	8.0
CC(=O)c1ccc(N(C(=O)Cn2nnc3ccccc32)C(C(=O)NC2CCCCC2)c2cn(C)nc2C)cc1 (configuration not stated)	7	-2.0%	-0.6	-1	1	-4.3
CC(C)NC(=O)Cn1c(=O)n(CC(=O)N2CCCCC2)c(=O)c2sccc21	-4	0.4%	4.2	nt	3	1.8
Cc1cccc(OCCNc2cc(N3CCOCC3)ccc2[N+](=O)[O-])c1	-6	?	2.0	-23	?	-3.1
CCC(O)(C#CCN1CCCCC1)CC	-25	-0.6%	0.5	-1	4	-1.4
N#Cc1sc2nc(-c3ccccc3)cc(C(F)(F)F)c2c1N	-5	11µM*	1.2	10	10	-2.2
Cc1ccc(NC(=O)CSc2nnc(NC3CC3)s2)cc1S(=O)(=O)N1CCOCC1	-8	0.3%	-0.8	0	-1	-0.6
O=C(NC(NC1CCS(=O)(=O)C1)C(Cl)(Cl)Cl)c1ccc(Br)cc1 (configuration not stated)	-15	-0.1%	-0.6	2	-2	-3.6
COc1cccc(CC(=O)NCC2COc3ccccc3O2)c1OC (configuration not stated)	2	nt	0.0	-17	-13	-3.5
COc1ccc(-c2csc(NC(=O)CSc3ccc(Br)cc3)n2)c(OC)c1	23	12%	-0.6	-5	-16	7.6
C=CCn1c(=O)c2ccccc2n2c(SCc3nnc(-c4ccccc4Br)o3)nnc12	-2	-0.5%[38.3 µM]	-0.1	4	-5	-0.9
CCn1c(SCC(=O)Nc2nc3ccccc3s2)nnc1-c1ccc(Br)cc1	-6	1.4%	0.9	0	7	-0.4
COC(=O)c1ccccc1NC1CC(=O)N(c2c(C)cccc2C)C1=O (configuration not stated)	-12	15%[38.3 µM]	-0.5	22	-10	-2.9
CN(C(=O)CCc1nnc(-c2ccc(-c3ccccc3)cc2)o1)C1CCOCC1	-2	1.6%	-0.3	3	1	-2.5
CCCNC(=O)C1(C)CCCN(C(=O)c2ccccc2OC)C1 (configuration not stated)	-3	0.3%	-0.7	9	1	1.7
CN1CCC(N(C)S(=O)(=O)c2ccc(NC(=O)COc3cccc(C(F)(F)F)c3)cc2)CC1	-37	3.4%	-0.2	-1	-1	-2.8
O=C(COc1ccc(S(=O)(=O)N2CCCCC2)cc1Cl)N1CCOCC1	-4	-0.1%	-0.2	1	0	-4.2
Cc1ccc(Cl)cc1N1CCN(S(C)(=O)=O)CC1	-21	nt	0.2	-2	4	-4.8
Cc1ccc(C2NC(c3ccc(C)cc3)C(C)C(=NO)C2C)cc1 (configuration not stated)	-14	5.4%[38.3 µM]	0.4	7	-9	-2.7
O=C(O)CSc1nnc(-c2ccc(Cl)cc2Cl)n1-c1ccc(Br)cc1	-1	-1.4%	-0.3	10	3	0.0
CN(C)/C=N/c1c(C(=O)NCc2ccccc2)nnn1Cc1ccccc1	11	1.6%	-0.3	5	5	-0.2
COc1ccccc1CC(=O)NCC(c1ccco1)N1CCCCC1 (configuration not stated)	-17	1.7%	-0.4	2	-23	-16
COC1=CC(=O)C(OC)=C(OC)C1=O	?	?	0.6	9	1	?
CCn1c(-c2ccc(-c3ccccc3)cc2)c[nH]c1=S	-28	-1.6%	-1.0	-10	-13	-0.7
CCc1ccc(NC(=O)c2cc(-c3ccc(F)cc3)on2)cc1	-8	2.6%	0.3	nt	5	-16

Going on with the list:
SMILES	D2 potentiator	PINK1 expr mod	TRPML1 ag	CtBP-E1A blk	Six1-Eya2 blk	D2 agonist
CCOc1ccccc1C(=O)NCC(=O)NCC(c1ccc(OC)cc1)N1CCOCC1 (configuration not stated)	-18	-2.1%	-0.4	2	7	-0.1
CN(CC(=O)Nc1ccc(N2CCOCC2)cc1)C(=O)CCNC(=O)c1ccc(Br)cc1	-29	-1.0%	-0.1	2	5	-2.1
O=[n+]1cc(-c2ccc(F)cc2)n([O-])c2c1CCC2	6	1.1%	-0.4	1	4	-1.9
Cc1ccc(SCc2cc(=O)n3[nH]cnc3n2)cc1	6	0.6%	0.3	8	-20	-2.1
CCN1CCN(c2ccc(NC(=O)c3ccc4c(c3)OCO4)cc2)CC1	-16	-0.3%	0.2	3	-1	-3.4
CCC1=C(OC(=O)N(CC)CC)N2C(=O)OC(=NCCc3c[nH]c4ccccc34)[C@]2(C)[C@H]2C1=CC[C@H]1C(=O)NC(=O)[C@H]12	-3	-0.5%	-0.4	-3	1	-7.8
NC(=O)c1nnn(-c2nonc2N)c1-c1ccc([N+](=O)[O-])cc1	-2	0.9%	0.6	nt	14	-2.1

Among those listed so far, eleven have an NH in an aromatic ring.
SMILES	D2 potentiator	PINK1 expr mod	TRPML1 ag	CtBP-E1A blk	Six1-Eya2 blk	D2 agonist
O=C(N/N=C/c1ccc[nH]1)c1ccc(COc2cccc3cccnc23)cc1	-1	?	0.3	-20	-25	3.8
Cc1ccc2[nH]c(C)c(/C=N/Nc3nc4ccccc4s3)c2c1	58*	24%[38.3 µM]	-0.6	-15	-9	5.8
CC(O)CSc1nc2c(c(=O)[nH]c(=O)n2C)n1CC(O)COc1ccccc1 (configuration not stated)	-1	-0.9%	1.4	7	5	2.4
Nc1nc(C23CC4CC(CC(C4)C2)C3)[nH]c(=O)n1	-2	-0.2%	0.6	-18	-3	-2.9
COC(=O)c1c[nH]n2c(=O)cc(C)nc12	-3	1.9%[38.3 µM]	-0.2	0	4	-1.6
Brc1ccc(-n2c(SCc3nc4ccccc4[nH]3)nnc2-c2ccncc2)cc1	-18	1.0%	-0.3	10	1	-3.5
O=C(CCn1c(=O)[nH]c2ccccc2c1=O)NCCCN1CCN(c2cccc(Cl)c2)CC1	-15	-2.9%	0.2	0	-16	-0.2
O=C(CSc1nc2[nH]ncc2c(=O)[nH]1)NCc1ccccc1	-23	0.4%	-0.1	-9	-4	-3.8
CCn1c(-c2ccc(-c3ccccc3)cc2)c[nH]c1=S	-28	-1.6%	-1.0	-10	-13	-0.7
Cc1ccc(SCc2cc(=O)n3[nH]cnc3n2)cc1	6	0.6%	0.3	8	-20	-2.1
CCC1=C(OC(=O)N(CC)CC)N2C(=O)OC(=NCCc3c[nH]c4ccccc34)[C@]2(C)[C@H]2C1=CC[C@H]1C(=O)NC(=O)[C@H]12	-3	-0.5%	-0.4	-3	1	-7.8

Bioassay records (PubChem BioAssay)
